# Screening results from PubChem.
# Resorufin autofl = compound fluoresces in the resorufin spectral region; Compound fluorescence, resorufin region 547/598 nm, buffer; stronger effect = higher value; max dye-equivalent concentration, M; actives 0.04% (n = 59,000); AID 588; active = above 10 nM dye equivalent; inconclusive = 1 to 10 nM; inactive = 1 nM or less; a few of its hits are not listed in these tables; note: highest value over a series up to 38 µM
#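 Compounds in 100 mM Tris, pH 8.0, incubated 15 min at room temperature, then fluorescence read at 547 nm excitation/598 nm emission. Signal converted to dye-equivalent concentration via an on-plate six-point resorufin standard curve, per compound concentration.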
# TSHR ag = agonists of human thyroid stimulating hormone receptor; AID 926; HEK293-CNG-TSHR cells (CNG channel as cAMP sensor), membrane potential dye, cAMP; Potency, µM (highest dose often 57.1 µM), without a hit: at the highest dose activation, hits mostly activators; P16473; actives 0.48% (n = 73,000); active = well fitted activation curve of enough size with the parental cells flat; inconclusive = any curve in the parental cells; inactive = parental cells flat and receptor cells flat or falling; note: potency is the fitted concentration of half-maximal effect; % of control where 0% means no effect; weak receptor curves with flat parental cells got no call and are not listed
# Target sequence (P16473 whole entry, looked up): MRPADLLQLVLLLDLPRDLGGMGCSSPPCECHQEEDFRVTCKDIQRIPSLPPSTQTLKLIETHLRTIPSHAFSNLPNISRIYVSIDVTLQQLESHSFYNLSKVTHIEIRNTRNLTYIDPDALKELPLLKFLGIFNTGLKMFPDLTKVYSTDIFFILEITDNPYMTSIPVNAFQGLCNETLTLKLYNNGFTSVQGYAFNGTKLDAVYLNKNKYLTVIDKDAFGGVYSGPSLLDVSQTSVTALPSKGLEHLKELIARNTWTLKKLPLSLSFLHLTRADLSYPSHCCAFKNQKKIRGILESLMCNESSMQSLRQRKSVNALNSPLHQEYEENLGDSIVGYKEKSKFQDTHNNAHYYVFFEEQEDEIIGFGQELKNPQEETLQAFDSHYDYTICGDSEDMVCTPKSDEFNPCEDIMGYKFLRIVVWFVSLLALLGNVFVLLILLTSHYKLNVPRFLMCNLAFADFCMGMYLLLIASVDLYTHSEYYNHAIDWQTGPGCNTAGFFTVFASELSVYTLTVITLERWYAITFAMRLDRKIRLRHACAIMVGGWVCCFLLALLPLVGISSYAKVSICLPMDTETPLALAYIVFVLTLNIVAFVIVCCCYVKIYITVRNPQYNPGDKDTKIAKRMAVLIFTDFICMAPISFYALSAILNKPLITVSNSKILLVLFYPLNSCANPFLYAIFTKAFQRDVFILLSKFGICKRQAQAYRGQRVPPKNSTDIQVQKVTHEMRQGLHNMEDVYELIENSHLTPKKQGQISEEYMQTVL
#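 cAMP rise detected as CNG-channel membrane depolarization by fluorescent dye (emission 590 nm), 30 min after compound, following 60 min dye loading containing 100 uM RO 20-1724 at room temperature. Cells: TSHR/CNG HEK 293, with parental CNG HEK 293 as control.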
# A488 autofl = A488 region autofluorescence; compound autofluorescence, A488 spectral region, dye equivalency; stronger effect = higher value; max dye equivalency, M; actives 0.1% (n = 59,000); AID 591; active = above 10 nM dye equivalent; inconclusive = 1 to 10 nM; inactive = 1 nM or less; about half of its hits are not listed in these tables;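 note: highest value over a series up to 38 µM; compound alone in buffer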
#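 Compounds pin-transferred into 100 mM Tris buffer, pH 8.0, incubated 15 min at room temperature, then imaged with 480 nm excitation/540 nm emission filters. Fluorescence converted to Alexa 488 dye-equivalent concentration via an on-plate six-point A488 standard curve.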
# A647 autofl = compound fluoresces in the A647 spectral region; max dye-equivalent concentration, M; 59,000 tested, under 10 active; Compound fluorescence, A647 channel (570/671 nm), Tris buffer; AID 592; active means above 1 µM dye equivalent; inconclusive means 0.1 to 1 µM; inactive means 0.1 µM or less;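 note: values scaled relative to a standard on each plate; highest value over a series up to 38 µM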
#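 Compounds pinned into 100 mM Tris pH 8.0, 15 min at room temperature, then read with 570 nm excitation/671 nm emission filters. Fluorescence normalized to an on-plate six-point Alexa 647 standard curve, giving dye-equivalent concentration per compound concentration.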
# AID923 = qHTS Assay for Allosteric/Competitive Inhibitors of Caspase-1: Spectroscopic Profiling in AFC Spectral Region; compound fluorescence, AFC spectral region (405/520 nm); almost no hit is shown here; Potency, µM (series often up to 57.5 µM), for inactives: at the highest dose fluorescence increase, actives largely listed as activators; actives 1.1% (n = 75,000); AID 923, 2007; active = well fitted activation curve with a large enough effect; inconclusive = small, poorly fitted or top-dose-only effect;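 note: potency is the fitted concentration of half-maximal effect; 0% is about no effect; scaled to a free AFC standard on each plate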
#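 Titrations up to 57 uM read every 20 sec for 3 min (405/520 nm) with 50 nM caspase 1 and 5 uM Ac-WEHD-AFC, pH 7.5 HEPES buffer. Fluorescence-vs-time intercept gave baseline, scaled against on-plate AFC standard.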
# * marks the source's active call; other numbers are inactive results; i = inactive; ? = inconclusive; nt = not tested or not shown; [ ] = dose if it differs, or a comment. An excerpt. The share of hits here may be higher or lower than overall.
SMILES,Resorufin autofl,TSHR ag,A488 autofl,A647 autofl,AID923
O=C(O)CCn1c(SCc2ccccc2)nc2ccccc21,nt,7%,nt,nt,1.0%
CCN(CC)S(=O)(=O)c1ccc2c(c1)nc(SCn1nnc3ccccc3c1=O)n2CC,i,?,i,2.3e-08,-1.4%
COc1ccc(OC)c(S(=O)(=O)NCc2cccnc2)c1,i,1%,i,6.8e-09,0.0%
Cc1ccc(C(=O)Nc2ccc3c(c2)CCC3)o1,nt,13%,nt,nt,0.3%
COc1cccc(-c2cc(C(=O)N3CCN(C(c4ccccc4)c4ccccc4)CC3)no2)c1,i,5%,i,2.6e-08,0.2%
COCC(C)NC(=O)c1cc(-c2ccccc2OC)on1 (centres undefined),i,4%[11.4 µM],i,8.6e-09,-0.7%
O=C(CSc1nc(O)c(C2CCCCC2)c(=O)[nH]1)Nc1ccc(Cl)cc1,i,-8%,i,2.1e-08,0.4%
Cn1c(NC(=O)c2cc(-c3ccc4c(c3)OCO4)nc3ccccc23)cc(=O)n(C)c1=O,i,-4%,i,1.8e-08,-0.2%
COc1ccc(O)c(-c2cn[nH]c2-c2cccs2)c1,i,-6%,i,5.6e-09,0.0%
N=C1Sc2ccccc2C2=NCCCN12,i,0%,i,4e-08,-2.9%
O=C(Nc1ccc2c(c1)OCCO2)C1CCCN(S(=O)(=O)c2cccnc2)C1 (centres undefined),nt,-4%,nt,nt,-2.9%
Cc1cc(C)nc(SCC(=O)N2CCOCC2)n1,nt,0%,nt,nt,0.6%
CC1C(O)=C(c2nc3ccccc3[nH]2)C(=N)N1c1ccccc1 (centres undefined),i,15%,i,1.4e-08,-2.5%
O=C(CSc1nnc(SCc2ccc(Cl)cc2)s1)N1CCN(C(=O)c2ccco2)CC1,i,nt,i,1e-09,1.0%
O=C1C(C=NCCCN2CCOCC2)=C(O)c2ccccc21,nt,-4%,nt,nt,-2.3%
Cc1cc(C(=O)OCC(=O)N(C)C2CCS(=O)(=O)C2)c(C)n1-c1ccccc1 (centres undefined),i,13%,i,1e-09,1.8%
CC[C@]1(c2ccccc2)NC(=O)N(C)C1=O,i,nt,i,3.4e-08,1.6%[25.7 µM]
COc1ccc(OC)c(-c2cc(C(=O)Nc3cc(C)n(Cc4ccc(Cl)cc4)n3)no2)c1,i,12%,i,1e-09,-0.5%
Cc1ccc2c(c1)NC(=O)C(CC(=O)NCc1cccnc1)O2 (centres undefined),nt,?,nt,nt,2.2%
N#Cc1ccccc1NCc1ccccc1,nt,?,nt,nt,-3.4%
O=C(Cn1c(=O)[nH]c2ccsc2c1=O)NC1CCCCC1,i,nt,i,1e-09,0.9%
CCCNC(=O)OC[C@@H]1O[C@H](CCO/N=C(\C)CCC(=O)OC[C@@H]2O[C@H](C#Cc3ccccc3)C=C[C@@H]2Oc2ccc(C)cc2)C=C[C@@H]1Oc1ccc(OC)cc1,nt,0%[11.4 µM],nt,nt,3.5%[11.5 µM]
Cc1ccc(NC(=O)Cn2c(=O)n(CCCCC(=O)NCc3ccco3)c(=O)c3ccccc32)cc1,i,3%,i,2.4e-08,1.2%
COc1ccc(OC)c(NC(=O)CN2CCC(C(=O)c3ccc(C)cc3)CC2)c1,i,28%,i,7.2e-09,-3.9%
CCCN1CCN(C(=O)c2cccc3c2C(=O)N(CCOC)C3)CC1,nt,2%,nt,nt,-2.2%
Cc1ccc(NC(=O)CN2C(=O)COc3ccc(C)cc32)nc1,i,5%,i,2.3e-08,-0.2%
O=C(CCCSc1nc2ccccc2s1)NC1=NCCS1,i,-4%[11.4 µM],i,3.1e-08,-0.4%
O=C(c1ccc(NS(=O)(=O)c2cccc3cccnc23)cc1)N1CCOCC1,i,2%,i,1.5e-08,-1.5%
COc1ccc(-n2c(Cc3cccn3C)nnc2SCC(=O)NC2CCCC2)cc1,nt,-3%,nt,nt,-0.1%
COC(=O)CN1C(=O)COc2ccc(Cl)cc21,nt,9%,nt,nt,1.9%

# One compound at a time, from the list above. Screens in order: Resorufin autofl, TSHR ag, A488 autofl, A647 autofl, AID923
# `COc1ccc(-n2c(Cc3cccn3C)nnc2SCC(=O)NC2CCCC2)cc1` as listed: nt, -3%, nt, nt, -0.1%
# `Cc1ccc(NC(=O)CN2C(=O)COc3ccc(C)cc32)nc1` as listed: i, 5%, i, 2.3e-08, -0.2%
# `O=C(CCCSc1nc2ccccc2s1)NC1=NCCS1` as listed: i, -4%[11.4 µM], i, 3.1e-08, -0.4%
# `Cc1ccc(NC(=O)Cn2c(=O)n(CCCCC(=O)NCc3ccco3)c(=O)c3ccccc32)cc1` as listed: i, 3%, i, 2.4e-08, 1.2%
# `O=C(c1ccc(NS(=O)(=O)c2cccc3cccnc23)cc1)N1CCOCC1` as listed: i, 2%, i, 1.5e-08, -1.5%

# Following part:
SMILES,Resorufin autofl,TSHR ag,A488 autofl,A647 autofl,AID923
CCOC(=O)c1ccc(NC(=O)C(CC)CC)cc1,nt,20%,nt,nt,-2.3%
O=C(Nc1c(C(=O)NCc2ccco2)cnn1-c1ccccc1)c1cccc(F)c1,nt,?,nt,nt,-1.4%
CC(C)N(CCO)C(=O)C(c1ccccc1)c1ccccc1,i,-6%,i,4.4e-08,-2.1%
Cc1cc(NC(=O)c2ccccc2NS(=O)(=O)c2c(C)c(C)cc(C)c2C)no1,i,?,i,1.1e-08,-0.3%
CN1C(=S)SC(C)(C)C1/[N+]([O-])=C/c1cccnc1 (centres undefined),i,-6%,i,1.3e-08,-1.2%
CCOC(=O)N1CCN(C(=O)Cc2cccs2)CC1,nt,-6%,nt,nt,1.5%
O=c1cc(N=Nc2ccc(O)cc2)[nH]c(=O)[nH]1,i,-7%[11.4 µM],i,1e-09,-0.2%[11.5 µM]
O=c1[nH]c(SCc2cccc(Cl)c2)nc2c1CCCC2,i,?,i,1.6e-09,-1.1%
CCOC(=O)Nc1oc2ccccc2c(=O)c1CN1CCOCC1,i,6%,i,1e-09,1.3%
Cc1ccc(C(=O)N2CCN(c3ccccc3)CC2)cc1C,nt,?,nt,nt,5.6%
Cc1cc(C)c(C#N)c(=N)o1,i,11%,i,1.6e-09,0.8%
Brc1ccccc1CN1CCC(N2CCCCC2)CC1,nt,?,nt,nt,4.9%
CC(=O)N1CC=CC1(CC(C)C)C(=O)NCc1ccc(C)o1 (centres undefined),nt,4%,nt,nt,0.2%
Cc1cc(C)n2nc(C(=O)Nc3cccnc3)nc2n1,i,nt,i,2.7e-08,0.1%
Cc1cnc(NC(=O)CSc2nnc(-c3cccs3)n2C)s1,i,-3%,i,2.1e-08,-0.5%
CS(=O)(=O)N(CC(=O)Nc1ccc2c(c1)OCCO2)c1ccc2c(c1)OCO2,i,-1%,i,6.6e-08,-0.9%
O=S(=O)(Nc1ccc(N2CCOCC2)cc1)c1cccs1,i,-18%,i,1e-09,1.7%
CC(=O)C1=C(C)OC(N)=C(C#N)C1c1ccco1 (centres undefined),i,9%,i,1e-09,18%
O=c1c2c(nc3n1CCCCC3)-c1ccccc1CC21CCCC1,i,2%,i,1.6e-08,0.5%
CCOC(=O)c1cnc(-n2nc(C)cc2C)nc1Nc1cccc(C(C)=O)c1,i,16%,i,2.9e-08,-0.4%
COc1cccc(NC(=O)Nc2nnc(N3CCCCC3C)s2)c1 (centres undefined),nt,-11%,nt,nt,-1.0%
CC(C)(C)c1ccc(C(=O)/C=C2\NC(=O)CS2)cc1,i,3%,i,1.2e-09,-0.4%
Cn1c(=O)oc2cc(S(=O)(=O)Nc3cccc(F)c3)ccc21,nt,4%,nt,nt,-5.0%
CC(C)OC(=O)Cn1c(=O)oc2ccccc21,i,0%,i,2.4e-08,-0.9%
CN1C(=S)SC(C)(C)C1(C)NO (centres undefined),i,1%,i,9.4e-09,0.5%
O=C1c2ccccc2C(=O)c2c(NC(=O)c3ccc4c5c(ncnc35)-c3ccccc3C4=O)cccc21,i,-1%[11.4 µM],i,1.1e-09,-1.6%[11.5 µM]
N#CCSc1nnc(Cc2ccc3c(c2)OCO3)o1,i,18%,i,4.1e-08,-1.0%
CC(CCC(=O)O)(c1ccc(O)cc1)c1ccc(O)cc1,i,-5%[11.4 µM],i,1.3e-08,8.0%[11.5 µM]
COc1ccc(-c2oc3ncn4nc(COc5ccccc5)nc4c3c2-c2ccc(OC)cc2)cc1,i,nt,i,1e-09,nt
CC(=O)c1cccc(NC(=O)c2cccc(S(=O)(=O)N(C)C)c2)c1,i,-3%,i,1.3e-09,-0.8%
CC1CC(C)CN(C(=O)CCCn2c(=S)[nH]c3ccccc3c2=O)C1 (centres undefined),i,?,i,1.6e-08,2.1%
COc1ccc(C2CC3(CC(C)(C)NC(=O)N3)Oc3cc(O)ccc32)cc1 (centres undefined),i,0%,i,7.5e-09,0.0%
Cc1cc(C)n2nc(C(=O)OCCOc3ccc(F)cc3)nc2n1,i,0%,i,1.1e-08,-0.1%
CCCn1cc(S(=O)(=O)CC(=O)NC2CCCCC2)c2ccccc21,i,?,i,4.5e-09,0.7%
CN(C)C(=O)c1ccc(-c2cc(NCc3cccs3)ncn2)cc1,i,9%,i,1.1e-08,5.7%
Cc1ccc(NC2SC(=O)N(Cc3cccc(C(=O)O)c3)C2=O)cc1 (centres undefined),i,6%,i,1e-09,-0.7%
CCOc1cc(C(=O)Nc2ncccn2)cc(OCC)c1OCC,i,11%,i,3.9e-09,-2.9%
COc1ccc(-n2nc(C(=O)NCC(=O)NCc3ccco3)c3ccccc3c2=O)cc1Cl,i,?,i,1.1e-08,1.4%
COC(=O)c1ccc(NC(=O)CSc2nnc(COc3ccc4c(c3)CCCC4)o2)cc1,nt,-2%,nt,nt,3.3%
CCSc1nnc(NC(=O)C2CCCN(S(=O)(=O)c3cnc[nH]3)C2)s1 (centres undefined),nt,-3%,nt,nt,1.2%
OC1CCN(C(c2ccc3ncccc3c2)c2nnnn2C2CCCCC2)CC1 (centres undefined),i,4%,i,6.9e-09,-1.5%
O=C(CCCN1C(=O)c2ccccc2C1=O)Nc1c2c(nc3c1CCC3)CCC2,i,1%,i,1e-09,-0.5%
CCN1CCN(C(=O)Cn2ncc3ccsc3c2=O)CC1,nt,5%,nt,nt,0.9%
CCOC(=O)c1ccc(NC(=O)Nc2c(C)nn(C)c2C)cc1,i,2%,i,2.2e-08,-1.3%
COc1c(C)cccc1C(=O)Nc1cc(-c2nn3c(C)nnc3s2)ccc1C,nt,10%,nt,nt,1.4%
CCC(C(=O)Nc1ccccc1C(=O)N1CCCC1)N1C(=O)c2ccccc2C1=O (centres undefined),i,-4%,i,4.1e-09,0.8%
CCN(CC)C(=O)COc1ccc2oc(C)c(C(=O)OC(C)C)c2c1,nt,26%,nt,nt,2.6%
COc1ccc(NC(=O)COc2nc(N(C)C)nc(N(C)C)n2)cc1,i,-3%,i,3.6e-09,-2.3%
COCCSc1ccccc1C(=O)NCC1CCCO1 (centres undefined),i,12%,i,4.5e-08,-1.8%
CN(C)C=NC(=O)/C(C#N)=C1\CCc2ccccc2N1,nt,0%,nt,nt,3.1%

# Next structures follow.
SMILES,Resorufin autofl,TSHR ag,A488 autofl,A647 autofl,AID923
COc1ccc(/C(O)=C2\C(=O)C(=O)N(c3cc(C)on3)C2c2cccc(OC)c2OC)cc1C (centres undefined),i,nt,i,3.2e-09,nt
COc1ccc2nc(-n3c(C)ccc3C)sc2c1,i,nt,i,5.6e-09,1.8%
Cc1ccc(CNC(=O)C2CCCN(c3nc4ccccc4o3)C2)cc1 (centres undefined),nt,8%,nt,nt,3.4%
CCN(CC)S(=O)(=O)c1ccc(C(=O)Nc2nnc(C(C)C)s2)cc1,nt,-3%,nt,nt,1.6%
Cc1ccc(OCC(=O)N2CCN(C(=O)CCC3CCCC3)CC2)cc1,i,9%,i,6.4e-08,-1.2%
